# High-throughput results as filed in PubChem.
# ClpP mod = qHTS Assay for Activators of ClpP; purified B. subtilis ClpP, FRET peptide cleavage, 20 min; Potency, µM (top dose mostly 57.5 µM), for inactives: top-dose activity change, negative = active; 1.9% of 340,000 active; AID 651965, 2013; active = well fitted falling curve with a large enough effect; inconclusive = small, poorly fitted or top-dose-only effect; inactive = no such curve, though single readings can be large or run the other way; also: potency is read from the fitted curve at half-maximal effect; the source files actives as falling curves though it sought activators and does not explain the sign; nearly all actives have a fitted effect of over 65% in size; many hits overshoot -100%
# Target sequence (P80244 whole entry, looked up): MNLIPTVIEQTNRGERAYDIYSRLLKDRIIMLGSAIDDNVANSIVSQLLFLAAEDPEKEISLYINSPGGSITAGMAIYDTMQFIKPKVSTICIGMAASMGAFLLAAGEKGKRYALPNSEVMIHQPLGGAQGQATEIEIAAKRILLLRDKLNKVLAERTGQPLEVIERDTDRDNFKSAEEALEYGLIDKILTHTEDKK
#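 Buffer: 100 mM Tris/HCl pH8, 100 mM KCl, 0.05% low protease BSA, 2.5% glycerol, 0.01% Tween-20. ClpP 10 microg/mL final; 20 min RT; delta FRET normalized to ADEP and DMSO controls.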
# Menin-MLL FL inh = menin-MLL binding inhibition, fluorescein peptide; Fluorescence polarization, fluorescein-MLL peptide displacement from menin; FP activity change, % at 61.4 µM; 290,000 tested, under 10 active; inconclusive = falling polarisation curve, or a change in total fluorescence; inactive = total fluorescence flat and polarisation flat or rising; no compound was filed as active; the % refers to the polarisation; negative = inhibition;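 also: % of control where 0% means no effect; inhibitors lower the polarisation; unlabelled MLL peptide was the positive control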
# gsp antag = gsp mutant antagonism; gsp-mutant cells, cAMP HTRF, 30 min; control for the full effect not named in the record; Potency, µM (titrated, usually from 76.9 µM), inactives show top-dose activity change, negative = inhibition, usual class: inhibitors; 0.4% of 340,000 active; AID 624288; active = falling curve of any shape with a large fitted effect; inconclusive = falling curve, mostly with a smaller effect; inactive = flat or rising curve; cell line not stated here;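 also: intracellular cAMP measured with PDE inhibitor Ro 20-1724 present during compound exposure; potency is read from the fitted curve at half-maximal effect; % is scaled to controls: 0 for no effect and ±100 for the full control effect; nearly all actives have a fitted effect of over 65% in size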
#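 G418-selected cells were plated in DMEM/10% FBS for 16-24 h at 37C, then treated with compounds plus the PDE inhibitor […] (300 uM solution added) for 30 min at 37C. Intracellular cAMP was measured by HTRF after 30 min lysis at room temperature.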
# TRPV1 PAM = enhances activation of the human vanilloid receptor TRPV1; Q8NER1; 0.02% of 320,000 active; TRPV1-expressing cells, Fluo-8 calcium influx, capsaicin EC20 potentiation; host cell line not named in the record; control for the full effect not named in the record; potentiation, % at 8.33 µM; AID 540277; active means potentiation above 80%; inconclusive means 30% to 80%; inactive means below 30%; also: 0% is about no effect
# Target sequence (Q8NER1 whole entry, looked up): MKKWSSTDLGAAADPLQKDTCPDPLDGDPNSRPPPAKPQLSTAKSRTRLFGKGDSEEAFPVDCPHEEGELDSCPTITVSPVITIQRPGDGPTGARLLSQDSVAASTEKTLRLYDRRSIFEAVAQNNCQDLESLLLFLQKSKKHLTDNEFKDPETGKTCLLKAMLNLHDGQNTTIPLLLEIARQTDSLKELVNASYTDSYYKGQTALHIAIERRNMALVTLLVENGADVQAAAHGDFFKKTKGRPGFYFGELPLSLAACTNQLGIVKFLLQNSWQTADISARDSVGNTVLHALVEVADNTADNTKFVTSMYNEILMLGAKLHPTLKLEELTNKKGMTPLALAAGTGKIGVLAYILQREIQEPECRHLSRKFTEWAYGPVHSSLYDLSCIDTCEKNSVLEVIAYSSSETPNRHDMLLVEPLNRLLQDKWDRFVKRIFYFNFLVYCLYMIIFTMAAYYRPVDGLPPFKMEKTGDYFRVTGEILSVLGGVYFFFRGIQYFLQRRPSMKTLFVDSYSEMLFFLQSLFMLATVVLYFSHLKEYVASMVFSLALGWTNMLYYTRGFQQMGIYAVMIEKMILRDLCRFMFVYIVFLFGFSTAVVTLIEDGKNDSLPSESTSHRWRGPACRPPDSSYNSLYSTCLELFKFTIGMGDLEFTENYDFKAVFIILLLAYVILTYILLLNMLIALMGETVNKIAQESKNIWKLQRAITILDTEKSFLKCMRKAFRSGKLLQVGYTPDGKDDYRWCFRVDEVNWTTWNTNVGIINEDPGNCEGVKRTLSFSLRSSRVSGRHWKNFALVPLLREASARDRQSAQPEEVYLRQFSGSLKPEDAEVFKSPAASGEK
#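 TRPV1-expressing cells were cultured overnight at 35.5C and loaded with Fluo-8 calcium dye for 40 to 90 min at room temperature. After a 10 s baseline, compound was added and calcium influx was read kinetically for 3 min (ex 480/em 520 nm).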
# Sfp PPTase inh = Sfp phosphopantetheinyl transferase inhibition; Q9F4F7; Biochemical Sfp PPTase activity, qHTS; Potency, µM, for inactives: max response, negative = inhibition, hits mostly inhibitors; 3.5% of 310,000 active; active = well fitted inhibition curve with a large enough effect; inconclusive = small, poorly fitted or top-dose-only effect, or another doubt; inactive = no such curve, though single readings can be large or run the other way;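 also: the enzyme is Sfp with the accession as filed and its product quenches rhodamine fluorescence; potency is read from the fitted curve at half-maximal effect; 0% = enzyme reaction without inhibitor and -100% = no enzyme wells; top concentration of the series not given in the record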
#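 Fluorescence-quenching assay: 15 nM Sfp-PPTase preincubated 15 min at room temperature with compound, then 5 uM rhodamine-CoA and 12.5 uM BHQ-2-labelled YbbR peptide added. Fluorescence (ex 525/em 598 nm) read at start and after 30 min; difference gives rate.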
# CtBP-E1A blk = inhibitors of CtBP/E1A interaction | AlphaScreen GST-E1A/His-CtBP binding, 1536-well; stronger effect = lower value; control for the full effect not named in the record | 0.49% of 340,000 active | activity change, % (concentration not given with the values) | AID 651724; in the data active means activity change below about -65%; inconclusive means about -30% to -65%; inactive means above about -30%; also: % is scaled to controls: 0 for no effect and ±100 for the full control effect
#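 Homogeneous bead-based format: GST-tagged E1A captured on glutathione donor beads, His-tagged CtBP on nickel acceptor beads; compounds precede bead addition by 2 h at 37 °C.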
# gsp agonist = activates gsp, the McCune-Albright syndrome mutation | gsp mutant cells, cAMP HTRF, 30 min; control for the full effect not named in the record | Potency, µM (highest dose often 76.9 µM), without a hit: at the highest dose activation (cAMP increase), hits mostly activators | 0.13% of 340,000 active; active = well fitted activation curve with a large enough effect; inconclusive = small, poorly fitted or top-dose-only effect, or another doubt; inactive = no such curve, though single readings can be large or run the other way; cell line not stated here;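 also: phosphodiesterase inhibitor Ro 20-1724 added with compounds to block cAMP breakdown; potency is read from the fitted curve at half-maximal effect; nearly all actives have a fitted effect of over 60% in size; about a fifth of the inactives were tested at one dose only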
#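 Cells in DMEM/10% FBS with G418 were pretreated with compounds in DMSO plus […] (300 uM stock) for 30 min at 37C. cAMP was measured by HTRF (cAMP-d2 plus anti-cAMP antibody-K) after 30 min at room temperature.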
# * hit, by the source's call; ? = inconclusive; nt = not tested or not shown; & = joins results of further samples; [ ] = another dose, or the depositor's remark.
SMILES,ClpP mod,Menin-MLL FL inh,gsp antag,TRPV1 PAM,Sfp PPTase inh,CtBP-E1A blk,gsp agonist
COc1cc2cc(CN(CCCO)S(=O)(=O)c3ccccc3)c(=O)[nH]c2cc1OC,13µM*,-0.8,-5%,-1,8%,13,-10%
COc1ccc(-c2nnc3ccc(SCC(=O)N4CCOCC4)nn23)cc1,-1.5%,3.9,6%,-2,-1%,0,?
Nc1nonc1C(=O)NC(c1ccccc1)c1ccccc1,0.2%,1.3,-1%,-1,10%,12,4%
Nc1cc(S(=O)(=O)Nc2ccccc2Cl)ccc1N1CCOCC1,-2.0%,-1.3,9%,10,-5%,10,3%
COc1cc(C(CC(=O)Nc2ncccc2C)N2Cc3ccccc3C2=O)cc(OC)c1OC (stereo not drawn),-0.3%&-0.4%,-10,0%,-7,7%,nt,23%
CCn1c2ccccc2c2cc(NC(=O)CSc3nnc(C4CC4)n3Cc3ccco3)ccc21,-7.9%,6.8,-14%,-29,-7%,-14,-27%
Cc1ccc([N+](=O)[O-])cc1NC(=O)c1ccc(CSc2ccccc2)cc1,1.6%,0.7,-1%,-3,32µM*,6,4%
CC(C)NC(=O)CSc1nc(Cc2cccs2)nc2ccccc12,0.0%,5.0,-5%,5,-3%,8,26%
Cc1cccc(OCc2nnc(SCc3cc(=O)[nH]c4ccccc34)n2-c2ccccc2)c1,-18%,5.9,-22%,5,-7%,4,-44%[inhibitor]
COc1ccc(-c2cc(C(F)(F)F)nc(N3CCN(Cc4ccccc4)CC3)n2)cc1OC,-4.5%,-3.0,-17%,-7,1%,-4,-28%
Cc1nn(C(=O)N(C)C)c(C)c1CN1C(=O)c2ccccc2C1=O,nt,-14,8%,2,4%,2,15%
CCCNC(=O)COC(=O)c1n[nH]c2ccccc12,nt,1.5,-10%,7,15%,4,31%[15.4 µM]
CCOc1ccc(-n2ccnc(SCC(=O)Nc3ccc(CC)cc3)c2=O)cc1,-1.6%,nt,-8%,26,nt,5,7%[15.4 µM]
Cc1ccc(CCC(=O)Nc2ccc(S(N)(=O)=O)cc2)o1,-0.9%,?,0%,10,5µM*,-3,17%
CN(O)/C=C/C(=O)c1ccc(Br)cc1,nt,-1.4,-13%,6,10%,2,-9%[15.4 µM]
CCOC(=O)CCCCC(=O)c1[nH]c(=O)[nH]c1C[n+]1ccccc1,nt,-6.0,nt,2,13%,nt,nt
CCCCN(CC)CCNC(=O)CN1C(=O)COc2ccc(S(=O)(=O)N3CCCC3)cc21,-0.3%&-2.5%,1.3,-14%,0,-19%,5,1%
O=C(CNC(=O)c1ccncc1)Nc1ccc(F)c(F)c1,-2.3%,nt,7%,-4,15%,-1,?
Cc1cccc(C)c1NC(=O)CNC(=O)c1c(C)nn(C)c1Cl,nt,4.2,-2%,?,10%,1,6%
CCOC(=O)NC1(Nc2cccc(Cl)c2)Oc2ccccc2O1,1.5%,-0.2,-2%,2,?,4,-38%[inhibitor]
CC(C)CC(=O)N1CCN(Cc2ccc3ccccc3c2)CC1,-1.6%,1.7,2%,27,-28%,nt,-30%[inhibitor]
CCC1CCc2[nH]nc(C(=O)O)c2C1 (stereo not drawn),0.8%,3.0,6%,-3,-14%,4,-32%[inhibitor]
CC1CN(S(=O)(=O)c2cccc(C(=O)NCc3ccc4c(c3)OCO4)c2)CC(C)O1 (stereo not drawn),-3.0%,0.6,-10%,-2,13%,-2,-22%
CCOC(=O)N1CCN(c2ncnc3c2cnn3-c2ccc(OC)cc2)CC1,-6.4%,5.4,-15%,-2,14%,0,?
N#Cc1ccccc1Sc1ccccc1C(=O)OCC(N)=O,nt,5.2,-1%,8,?,2,26%[15.4 µM]
CC(=O)c1ccc(NC(=O)NC2CC(=O)N(c3ccc4c(c3)OCCO4)C2)cc1 (stereo not drawn),nt,nt,7%,-18,nt,2,4%[15.4 µM]
NC(=O)c1ccc(/C=N/O)[n+](Cc2ccccc2)c1,1.7%,-0.5,4%,3,19%,nt,-45%[inhibitor]
Cc1ccc(C2(C)NC(=O)N(CC(=O)Nc3nc(-c4ccccn4)cs3)C2=O)cc1 (stereo not drawn),-1.2%,nt,5%,7,nt,?,-25%
Cc1cc(/C=C(\C#N)C(=O)NCc2cccs2)c(C)n1-c1ccccc1F,-23%,6.8,14%,-14,8%,-1,-5%
CCCCSc1nnc(-c2ccc(OC)cc2)n1C,-1.2%,1.7,4%,-13,-9%,-1,?
CC(=O)N1N=C(c2cccc(Cl)c2)OC1c1cccc([N+](=O)[O-])c1 (stereo not drawn),-1.9%,14,-15%,-9,-9%,9,1%[15.4 µM]
COc1ccc(N2CCN(CCCNC(=O)Nc3ccccc3)CC2)cc1,-6.3%&-2.0%,0.3,2%,-2,-12%,-1,6%
O=C(CNC(=O)C1CCCCC1)Nc1ccc(Cl)cc1,-1.0%,2.9,8%,10,10%,-2,-32%[inhibitor]
O=C1Nc2ccccc2N(O)N1c1cc(-c2ccc(Cl)cc2)[nH]n1,1.0%,3.1,11%,22,18%,6,?
CCc1nn(C(C)C(=O)NCCN2CCN(c3cccc(C)c3C)CC2)c(=O)c2cc3occc3n12 (stereo not drawn),-1.9%,0.0,-9%,-24,6%,-3,0%
CC1CCCC(C)N1C(=O)COC(=O)CSc1ccc(C(N)=O)cc1[N+](=O)[O-] (stereo not drawn),-1.1%,nt,-6%,1,nt,-1,-53%[inhibitor]

# Ordered by SMILES length (low to high): part of the list above
SMILES,ClpP mod,Menin-MLL FL inh,gsp antag,TRPV1 PAM,Sfp PPTase inh,CtBP-E1A blk,gsp agonist
CCCNC(=O)COC(=O)c1n[nH]c2ccccc12,nt,1.5,-10%,7,15%,4,31%[15.4 µM]
NC(=O)c1ccc(/C=N/O)[n+](Cc2ccccc2)c1,1.7%,-0.5,4%,3,19%,nt,-45%[inhibitor]
Cc1ccc(CCC(=O)Nc2ccc(S(N)(=O)=O)cc2)o1,-0.9%,?,0%,10,5µM*,-3,17%
CCOC(=O)CCCCC(=O)c1[nH]c(=O)[nH]c1C[n+]1ccccc1,nt,-6.0,nt,2,13%,nt,nt
Cc1cc(/C=C(\C#N)C(=O)NCc2cccs2)c(C)n1-c1ccccc1F,-23%,6.8,14%,-14,8%,-1,-5%
CC(=O)N1N=C(c2cccc(Cl)c2)OC1c1cccc([N+](=O)[O-])c1 (stereo not drawn),-1.9%,14,-15%,-9,-9%,9,1%[15.4 µM]
CC(=O)c1ccc(NC(=O)NC2CC(=O)N(c3ccc4c(c3)OCCO4)C2)cc1 (stereo not drawn),nt,nt,7%,-18,nt,2,4%[15.4 µM]
CCn1c2ccccc2c2cc(NC(=O)CSc3nnc(C4CC4)n3Cc3ccco3)ccc21,-7.9%,6.8,-14%,-29,-7%,-14,-27%
Cc1cccc(OCc2nnc(SCc3cc(=O)[nH]c4ccccc34)n2-c2ccccc2)c1,-18%,5.9,-22%,5,-7%,4,-44%[inhibitor]
CCc1nn(C(C)C(=O)NCCN2CCN(c3cccc(C)c3C)CC2)c(=O)c2cc3occc3n12 (stereo not drawn),-1.9%,0.0,-9%,-24,6%,-3,0%

# (further entries)
SMILES,ClpP mod,Menin-MLL FL inh,gsp antag,TRPV1 PAM,Sfp PPTase inh,CtBP-E1A blk,gsp agonist
CN1CCN(c2ccc(S(=O)(=O)N3CCCCC3)cc2NC(=O)COc2cccc(Cl)c2)CC1,-0.3%,nt,-3%,-13,nt,-7,32%
COc1cc(NC(=O)Cn2cnc(S(=O)(=O)N3CCC(C)CC3)c2)cc(OC)c1OC,-1.2%,nt,11%,26,11%,-25,?
CN(C)S(=O)(=O)c1cccc(NC(=O)COc2cccc(C#N)c2)c1,-0.7%,5.6,3%,8,-11%,-2,-9%[15.4 µM]
COc1ccc(Nc2nc(N)nc(CN3CCC(Cc4ccccc4)CC3)n2)cc1,0.2%,1.7,6%,1,8%,-1,-46%[inhibitor]
CCC/C(=C1/c2ccccc2C(=O)N1c1ccccc1)c1ccc2c(c1)OCCO2,-7.8%,nt,8%,4,nt,-3,nt
CC1=CC(=O)C(C(C)=Nc2ccccc2[N+](=O)[O-])C(=O)O1 (stereo not drawn),0.5%,nt,-3%,nt,nt,7,13%[15.4 µM]
Cc1ccc(C)c(C(=O)NC(C)CCc2ccccc2)c1 (stereo not drawn),1.8%,0.7,1%,-5,25%,-5,-25%
OC[C@H]1NC[C@@H](O)[C@@H]1O,-0.7%,-2.1,5%,-6,nt,7,nt
CCOC(=O)CSC1=C(C#N)C(=O)NC(c2ccc(OC)cc2)S1 (stereo not drawn),-0.1%,1.7,2%,2,45µM*,-1,-13%
COc1cccc(CNC(=O)c2nnn(CC(=O)Nc3ccc(Br)cc3)c2N)c1,0.2%,3.0,1%,-1,0%,nt,1%
COc1cc(OC)cc(C(=O)NNC(=S)NCc2ccco2)c1,nt,2.2,-2%,-5,8%,-2,-25%
OC(c1nc2ccc(F)cc2[nH]1)C(O)c1nc2ccc(F)cc2[nH]1 (stereo not drawn),-1.3%,-9.6,5%,-7,10%,-11,-21%[15.4 µM]

# 2 compounds from above, reduced to Sfp PPTase inh, Menin-MLL FL inh and TRPV1 PAM:
structure	Sfp PPTase inh	Menin-MLL FL inh	TRPV1 PAM
COc1cccc(CNC(=O)c2nnn(CC(=O)Nc3ccc(Br)cc3)c2N)c1	0%	3.0	-1
OC(c1nc2ccc(F)cc2[nH]1)C(O)c1nc2ccc(F)cc2[nH]1 (stereo not drawn)	10%	-9.6	-7

# Other entries.
SMILES,ClpP mod,Menin-MLL FL inh,gsp antag,TRPV1 PAM,Sfp PPTase inh,CtBP-E1A blk,gsp agonist
COc1cccc(/C=C/C(=O)OCC(=O)c2ccc(Br)cc2)c1,-21%,nt,nt,nt,nt,0,31%
CCCCN1CC(COCc2ccccc2)Oc2cccc(NCc3ccc(OC)cc3)c2S1(=O)=O (stereo not drawn),4.9%,nt,0%,nt,nt,-5,nt
CSCCC1NC(=S)N(Cc2ccccc2)C1=O (stereo not drawn),0.6%,5.7,6%,-8,13%,-1,33%
O=S1(=O)N=C(N2CCN(Cc3ccccc3)CC2)c2ccccc21,-1.8%,-0.8,3%,-6,-3%,10,-38%[inhibitor]
